# GIRK2 activ – activators of human GIRK2 potassium channels | HEK293-GIRK2 thallium flux, Thallos fluorescence | 63,000 compounds, 0.05% hits | G protein-activated inward rectifier potassium channel 2 (Homo sapiens), P48051 | calls only for hits at 25 µM;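 active = among the strongest 0.2% of first-round signals and kept after retests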;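 also: first round at about 10 µM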
# Target sequence (P48051 whole entry, looked up): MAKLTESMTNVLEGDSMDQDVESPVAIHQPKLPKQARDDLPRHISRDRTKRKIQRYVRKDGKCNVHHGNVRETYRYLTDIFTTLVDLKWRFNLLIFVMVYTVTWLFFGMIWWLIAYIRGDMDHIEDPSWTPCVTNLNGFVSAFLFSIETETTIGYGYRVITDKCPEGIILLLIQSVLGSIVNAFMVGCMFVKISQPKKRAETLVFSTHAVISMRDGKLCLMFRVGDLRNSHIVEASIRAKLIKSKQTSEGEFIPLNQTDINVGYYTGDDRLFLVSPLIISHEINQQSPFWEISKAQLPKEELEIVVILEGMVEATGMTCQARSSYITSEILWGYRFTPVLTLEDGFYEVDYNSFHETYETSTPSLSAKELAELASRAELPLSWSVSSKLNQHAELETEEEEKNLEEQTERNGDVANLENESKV
# Calls only; i = inactive. An excerpt; the hit share may differ from the screen's.
compound | GIRK2 activ
COc1ccc(-c2nc(C)c(-c3cc(=O)[nH]c(SCC(=O)Nc4ccc(F)cc4)n3)s2)cc1 | i
Cc1csc(SCC2CCN(C(=O)c3c[nH]c4ccccc34)CC2)n1 | i
Cc1cc(C)c(C)c(S(=O)(=O)NCc2ccc(C(=O)N3CCCC3)cc2)c1C | i
Cc1nnsc1C(=O)N1CCOCC1CO (centres undefined) | i
NC(=O)CNC(=O)Cc1csc(Nc2ncccn2)n1 | i
COc1ccc(-c2n[nH]n3c2nc(=O)c2ccc(C(=O)NCc4ccc(C(C)C)cc4)cc23)cc1 | i
CNc1ncccc1[N+](=O)[O-] | i
CCOC(=O)CCC(=O)Nc1ccn2ncc(C(=O)OCC)c2c1 | i
COc1ccc(N(C)c2nnc(-c3ccc(NC(C)=O)cc3)s2)cc1 | i
Cc1ccc(S(=O)(=O)NCCC(=O)NCc2ccccc2)c(C)c1N(C)S(C)(=O)=O | i
O=C1CC(C(=O)N2C3CCC2COC3)CN1c1ccc(F)cc1 (centres undefined) | i
COCC1CCN(C(=O)NCc2cccc3ccccc23)CC1 | i
COc1ccc(Nc2nnc(Cc3ccc(C)cc3)c(=O)[nH]2)c(OC)c1 | i
O=S(=O)(c1ccc2c(c1)CCCC2)N1CCN(S(=O)(=O)C2CC2)CC1 | i
COC(=O)c1ccc(C2c3c(oc4ccccc4c3=O)C(=O)N2CCN(C)C)cc1 (centres undefined) | i
Cc1ccc(NC(=O)Cn2cnc(-c3noc(-c4ccccc4C)n3)c2)cc1F | i
CC(NC(=O)CN(C)c1nc2c(C(F)(F)F)cccc2s1)c1ccccc1 (centres undefined) | i
Nc1nc(N)c2nc(-c3ccccc3)c(N)nc2n1 | i
C=CCOc1ccccc1CN1C(=O)C(O)(CC(C)=O)c2cccc(C)c21 (centres undefined) | i
CN(C)S(=O)(=O)c1ccc(C(=O)NCC2COC3(CCCCC3)O2)cc1 (centres undefined) | i

# Three entries out of the list, arranged by SMILES length, lowest first:
compound | GIRK2 activ
O=C1CC(C(=O)N2C3CCC2COC3)CN1c1ccc(F)cc1 (centres undefined) | i
Cc1csc(SCC2CCN(C(=O)c3c[nH]c4ccccc34)CC2)n1 | i
COc1ccc(Nc2nnc(Cc3ccc(C)cc3)c(=O)[nH]2)c(OC)c1 | i

# Going on with the list.
compound | GIRK2 activ
CCOc1cccc2cc(C(=O)NCCn3ncccc3=O)c(=O)oc12 | i
Cc1nc(-c2ccccc2)sc1-c1cc(=O)[nH]c(SCC(=O)Nc2cccc(C#N)c2)n1 | i
O=C(c1cc(-c2ccc(F)cc2)n[nH]1)N1CCN(c2cc(N3CCOCC3)ncn2)CC1 | i
O=C(CCc1csc2nc(C3CC3)cn12)N1CCN(c2ccc(C(F)(F)F)cn2)CC1 | i
CS(=O)(=O)N1CCc2nc(NC(=O)c3cc(=O)c4ccccc4o3)sc2C1 | i
CCC1CCCCN1C(=O)CN1CN(c2ccc(C)cc2)c2ncccc2S1(=O)=O (centres undefined) | i
CCOC(=O)N1CCc2c(sc(NC(=O)c3ccc(C)cc3)c2-c2nc3ccccc3s2)C1 | i
CC(=O)c1ncc([C@@H](O)[C@H](O)[C@H](O)CO)[nH]1 | i
O=C(NCCCn1ccnc1-c1ccccc1)C(=O)NCc1ccc(F)cc1 | i
COC(=O)c1ccc(CN2CCN(Cc3nc4ccccc4[nH]3)CC2)o1 | i
COc1ccccc1S(=O)(=O)N(CCc1cccs1)Cc1ccoc1 | i
COC(=O)c1ccc(S(=O)(=O)N(CCc2cccs2)Cc2cccnc2)cc1 | i
Cc1nc(SCC(=O)NCC2CCCO2)c2oc3ccccc3c2n1 (centres undefined) | i
Cc1cccc(C)c1NC(=O)CSc1nc2c(oc3ccccc32)c(=O)n1Cc1ccco1 | i
Cn1cccc1CN(Cc1cccs1)C(=O)c1nc2ccccc2s1 | i
CCOc1cc(/C=C2\SC(=S)N(c3cccc(Cl)c3)C2=O)ccc1O | i
Cc1ccc(C(C)C)c(OCC(O)Cn2c(N3CCOCC3)nc3c2c(=O)n(C)c(=O)n3C)c1 (centres undefined) | i
O=C(Nc1nc2c(s1)COCC2)c1cccc(-n2cnnn2)c1 | i
COc1ccc(OC)c(NC(=O)CSc2nc3c(-c4ccccc4)c[nH]c3c(=O)n2C2CC2)c1 | i
CCCOC(=O)c1ccc(Oc2c(C)oc3cc(OC(=O)N4CCOCC4)ccc3c2=O)cc1 | i

# Of the compounds above, four have a furan ring, fused or not.
compound | GIRK2 activ
COC(=O)c1ccc(CN2CCN(Cc3nc4ccccc4[nH]3)CC2)o1 | i
COc1ccccc1S(=O)(=O)N(CCc1cccs1)Cc1ccoc1 | i
Cc1nc(SCC(=O)NCC2CCCO2)c2oc3ccccc3c2n1 (centres undefined) | i
Cc1cccc(C)c1NC(=O)CSc1nc2c(oc3ccccc32)c(=O)n1Cc1ccco1 | i

# Going on with the list:
compound | GIRK2 activ
O=C(Oc1ccc2c(=O)c(-c3ccccc3)coc2c1)c1ccco1 | i
COc1ccc(N2CC(C)Cn3c2nc2c3c(=O)[nH]c(=O)n2C)cc1 (centres undefined) | i
Cc1cccc(C)c1N1CCN(S(=O)(=O)N2CCCC2)CC1 | i
Cc1cc(NC(=O)C(=O)NCC(O)c2ccc(C)o2)no1 (centres undefined) | i
CCOP(=O)(OCC)c1ccc(C2(CCC(C)C)SCCCS2)o1 | i
CC1CN(C(=O)c2ccc(CNS(=O)(=O)c3cccc(Cl)c3)cc2)CC(C)O1 (centres undefined) | i
COc1ccc(-c2cc(OCC(N)=O)c3cc([N+](=O)[O-])ccc3n2)cc1 | i
CC(C)=CCC/C(C)=C/CC/C(C)=C/CC[C@]1(C)CCc2cc(O)cc(C)c2O1 | i
O=C(O)Cc1ccccc1Nc1ccccc1Cl | i
CCOc1ccc(C)cc1S(=O)(=O)Nc1ccc2c(c1)CCCN2S(=O)(=O)CC | i
Cc1noc(C)c1CCC(=O)N1CCN(Cc2csc(-c3ccccc3)n2)CC1 | i
CC(=O)Nc1cccc(NC(=O)Nc2cn(C)c3ccccc23)c1 | i
O=C(Nc1cc(Cl)ccc1Cl)c1n[nH]n2c1nc(=O)c1ccccc12 | i
CC(C)c1cc2c(c(O)c1O)C13CCCC(C)(C)C1CC2OC3=O (centres undefined) | i
CC(C)Oc1ccc(C(=O)Nc2ccc(-n3nnc(C(=O)NC4CCCC4)n3)cc2)cc1 | i
Cc1ccc(-c2nc(Cn3nnc(-c4nc(-c5ccc(OC(C)C)cc5)no4)c3C)c(C)o2)cc1 | i
CC(=O)N1CCc2c(sc(NC(=O)c3cccs3)c2-c2nc3ccccc3s2)C1 | i
Cc1nc(-c2ccccc2F)sc1CNC(=O)c1ccc(=O)[nH]c1 | i
O=C(NCCN1CCN(C(=O)c2cnn(-c3ccccc3)n2)CC1)c1ccsc1 | i
CCc1cnc2c(c1SCC(=O)N1CCCc3ccccc31)c(=O)n(C)c(=O)n2C | i

# Next entries.
compound | GIRK2 activ
CC(C)(C)c1cc(NC(=O)NC2CC2)n(-c2nc3c(c(=O)[nH]2)CCC3)n1 | i
Cc1cn2c3c(=O)n(Cc4ccc(Cl)cc4Cl)c(=O)n(C)c3nc2n1C(C)C | i
COc1cccc(N2CCCn3c2nc2c3c(=O)n(Cc3ccc(Br)cc3)c(=O)n2C)c1 | i
Cc1cccc(C(=O)NC2CCN(C(=O)c3cc(-c4ccc(F)cc4)n[nH]3)CC2)c1 | i
CCOC(=O)N1CCN(C(=O)C2CCC(CNS(=O)(=O)CC)CC2)CC1 (centres undefined) | i
O=C(c1ccncc1)N1CCC(CNC(=O)C2(c3ccc(Cl)cc3)CCCC2)CC1 | i
CN(C)S(=O)(=O)c1ccc(C(=O)N2CCC3(CC2)OCCCO3)cc1 | i
CC(=O)OC1[C@H]2[C@@H](C[C@@H](C)[C@@H]3C=CC(=O)[C@@]13C)OC(=O)[C@@H]2C (some centres undefined) | i
CCOCCCNC(=O)c1sc(-c2nnn(-c3ccc(C)c(C)c3)c2C)nc1C | i
O=C(Cn1c2ccccc2c2ncn(Cc3nc(-c4ccccc4)no3)c(=O)c21)NCc1ccccc1 | i
O=C(Nc1nc2ccc(F)cc2s1)c1ccc(S(=O)(=O)N2CCOCC2)cc1 | i
O=C1/C(=C/c2ccc(Cl)c(Cl)c2)Oc2cc(O)ccc21 | i
COCCN(Cc1ccsc1)C(=O)NCc1ccc(Cl)cc1 | i
O=C1/C(=C/c2cccnc2)Oc2cc(OCc3ccc([N+](=O)[O-])cc3)ccc21 | i
O=C(NC1CCCC1)c1nnn(-c2ccc(NC(=O)c3nc4ccccc4s3)cc2)n1 | i
Cn1cc(C(=O)Nc2ccc(F)c(F)c2)c(S(=O)(=O)N2CCN(c3ccc(Cl)cc3)CC2)n1 | i
O=C(NCC(O)c1ccoc1)C(=O)Nc1ccc2c(c1)OCCO2 (centres undefined) | i
COc1cccc(C(CNC(=O)c2ccccc2Br)N2CCOCC2)c1 (centres undefined) | i
Cc1nc(-c2nnn(-c3ccccc3)c2C)sc1C(=O)NCc1ccccc1 | i
Cc1cc(C(=O)N2CC(C(=O)N(C)c3ccccc3)C2)no1 | i

# Next section
compound | GIRK2 activ
Cc1ccc(CNC(=O)Cn2c(=O)n(-c3cccc(C)c3)c(=O)c3c2c2cc(C)ccc2n3C)cc1 | i
O=C(NCC1CC1)c1cc2c(OCc3ccc(Cl)cc3)cccc2[nH]1 | i
Cc1ccc(NC(=O)Cn2c(=O)c(CCC(=O)NC3CCCC3)nc3ccccc32)cc1C | i
CCCOc1ccc(S(=O)(=O)Nc2ccc3c(c2)CCC(=O)N3Cc2ccccc2)cc1 | i
CCOc1ccc(-c2csc(-n3nc(C)cc3NC(=O)c3cccc(OC)c3OC)n2)cc1 | i
O=C(Nc1ccccc1-c1ccc(=O)[nH]n1)C1CCN(c2ccc(-n3cccn3)nn2)CC1 | i
O=C(Cn1c(=O)oc2ccccc21)NC1CCCC(OC(=O)Nc2ccccc2)C1 (centres undefined) | i
C/C=C/C(=O)N1CCC(Oc2ncccc2Br)CC1 | i
Nc1cccc(-c2ccc(Cl)cc2)c1 | i
COCCNC(=O)CN1CCC(c2nn(C)c(=O)n2-c2ccccc2)CC1 | i
COc1ccc(SCC2CCN(C(=O)c3cc(C)on3)CC2)cc1 | i
CC(=O)N1CCN(S(=O)(=O)c2cccc(C(=O)Nc3cccc(F)c3)c2)CC1 | i
N#Cc1ccc(OC2CCN(C(=O)CCSc3ccccc3)CC2)nc1 | i
Cc1c(C(=O)N(C(=O)N2CCCCC2)c2ccccc2)cccc1[N+](=O)[O-] | i
COc1cccc2cc(C(=O)Nc3ccc(CC(=O)N4CCOCC4)cc3)oc12 | i
N#CC1=CN(c2ccc(Oc3ccccc3)cc2)c2ccccc2S1(=O)=O | i
CC(C)N1CCC(CNS(=O)(=O)c2ccc(-c3ccccc3)cc2)CC1 | i
O=C(NCC1CCN(C(=O)c2ccoc2)CC1)C(=O)Nc1cccc(N2CCCC2=O)c1 | i
COc1ccc(CNC(=O)NCC2(c3ccccc3)CCOCC2)cc1OC | i
COC(=O)N1CCc2ccccc2C1C(=O)NCc1nc(C)no1 (centres undefined) | i

# Next part:
compound | GIRK2 activ
COc1ccc(CCC(=O)NCC(c2cccc3ccccc23)N2CCOCC2)cc1 (centres undefined) | i
Cc1ccc(C(=O)Nc2nnc(-c3cccs3)o2)cc1 | i
Cc1noc(-c2cccn3c(=O)n(CCOc4ccccc4)nc23)n1 | i
Cn1cc(C(=O)N2CCCC2)cc(NC(=O)C2CCCCC2)c1=O | i
Cc1cc(C)c(NC(=O)c2cc3ccccc3oc2=O)c([N+](=O)[O-])c1 | i
N=C1S/C(=C\c2ccc(Cl)cc2)C(=O)N1c1ccc(S(N)(=O)=O)cc1 | i
CCOC(=O)c1c(C)[nH]c(C(=O)/C(C#N)=C\c2ccco2)c1C | i
CCCCOc1ccc(C(=O)NCCC(O)c2cc(C)oc2C)cc1 (centres undefined) | i
CCCC(=O)Nc1oc2c(C)cccc2c(=O)c1-c1ccccc1 | i
COc1ccc(CNC(=O)c2cccc(N3CCCS3(=O)=O)c2)cc1OC | i
CCOc1ccc(-c2noc(Cn3c(=O)n(CCCOC)c(=O)c4ccccc43)n2)cc1 | i
COc1cccc(-c2cc(-c3nc(-c4ccc5c(c4)OCO5)no3)[nH]n2)c1 | i
CC(O)(CNC(=O)CSc1ccc(F)cc1)c1ccco1 (centres undefined) | i
N#Cc1ccc(-c2ccc3c(c2)OCO3)nc1SCC(=O)N1CCOCC1 | i
COc1ccc(-c2nc(SCC(=O)NCC3CCCO3)c(-c3ccc(F)cc3)[nH]2)cc1OC (centres undefined) | i
Cc1cc(C(=O)N2CC(C(=O)Nc3ccc4c(c3)OCCO4)C2)no1 | i
COc1cccc(C2c3c(oc4cc(C)c(C)cc4c3=O)C(=O)N2CCN(C)C)c1 (centres undefined) | i
O=C(NCCNc1ccc(Nc2cccnc2)nn1)c1cccc(F)c1 | i
Cc1ccc(Cn2nc3n(C)c(=O)c4ccc(C(=O)NC5CCCCC5)cc4n3c2=O)cc1 | i
O=C(c1cc2ccccc2o1)N1CC(c2nc(-c3cccnc3)no2)C1 | i

# (further entries)
compound | GIRK2 activ
CCN(CC)S(=O)(=O)c1ccc(C(=O)NCCN(C)C)cc1 | i
CSc1ccc(-c2ccc(/C=C3\C=C(CC(=O)O)c4cc(F)ccc43)cc2)cc1 | i
CCN(CC)S(=O)(=O)c1ccc(OC)c(Nc2ncc(-c3ccccc3)o2)c1 | i
Cc1nc2ccc([N+](=O)[O-])cc2[nH]1 | i
CCOC(=O)Cn1nc2c(S(=O)(=O)N3CCCCCC3)cccn2c1=O | i
CC(C)NC(=O)C(=O)NCCCN1CCN(c2ccccc2)CC1 | i
O=C(Cn1cccc(S(=O)(=O)N2CCCCC2)c1=O)Nc1cccc(C(F)(F)F)c1 | i
COc1ccc(NC(=O)N2CCC3(CC2)NC(=O)c2cccc(Cl)c2N3)c(C)c1 | i
COC(=O)c1sccc1S(=O)(=O)NCc1cc(C)oc1C | i

# Screens deposited in PubChem BioAssay by Vanderbilt University.
